Mtb H37Rv = Mycobacterium tuberculosis H37Rv growth inhibition, cell based, confirmatory dose response (AID 1949); most inactive calls were filed without a number and no value below 0 was filed; one-dose inhibition, % at 10 µg/mL; IC50 in µg/mL for titrated hits; hit rate 1.6% among 100,000;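 active = confirmed in a dose series; inconclusive = about 50% or more but not retested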;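 also: bacteria grown 7 days with compound before Alamar blue readout; 0% = untreated bacteria and 100% = reference antibiotic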
The depositor's hits bear a star; i = inactive; u = inconclusive.

SMILES | Mtb H37Rv
Cc1cc(Br)ccc1OCC(=O)Nc1ccccc1F | 5%
Oc1cccc2ccc(N3CCOCC3)nc12 | 1%
C=CCc1cccc(CNc2c(C)n(C)n(-c3ccccc3)c2=O)c1O | i
O=C(Nc1cccc(Cl)c1)N1CCc2ccccc21 | 21%
COc1cc(CN2CCN(C(=O)c3cccc(OC)c3OC)CC2)cc(OC)c1O | i
O=C(CN(Cc1ccccc1)S(=O)(=O)c1cc(Cl)ccc1Cl)Nc1cccc(F)c1 | 3%
Cc1ccc(N(CC(=O)Nc2ccc(C)cc2C)S(=O)(=O)N2CCCC2)cc1 | i
Cc1ccc(C(=O)Nc2ccc(C(N)=O)cc2)c(C)c1 | i
CCCCc1ccc(NC(=S)NCc2cccs2)cc1 | 28%
O=C(/C=C/c1ccc(-c2cccc(Cl)c2Cl)o1)c1ccccc1 | i
CCOc1cc(C#N)cc(I)c1OCC(=O)OC | i
O=C(COc1ccc(S(=O)(=O)NC2CCCCC2)cc1)Nc1cccc(Br)c1 | i
Cc1ccc(-n2c(C)nnc2SCc2ccc(Br)cc2)cc1C | 13%
N/C(=N\OC(=O)CC1CCCCC1)c1cccc([N+](=O)[O-])c1 | 10%
c1ccc2sc(CCc3nc4ccccc4s3)nc2c1 | 4%
CC(C)(C)CC(C)(C)NC(=O)Cc1ccc(Cl)cc1 | i
CC(=O)Nc1ccc(S(=O)(=O)N2CCN(c3ccnc4cc(Cl)ccc34)CC2)cc1 | 11%
O=C1CCCC2=C1C1c3ccccc3C(=O)N1c1ccc(C(=O)c3ccccc3)cc1N2 (stereo unspecified) | 49%
Fc1ccc(CSc2nnc(SCc3cccc(F)c3)s2)cc1 | 5%
COC(=O)CC1=C(C(=O)OC)C2(C(=O)N(Cc3ccccc3F)c3ccccc32)C(C#N)=C(N)O1 (stereo unspecified) | 4%
CCCCC(=O)Nc1cccc(NC(=O)c2cccnc2)c1 | 1%
O=C(Nc1ccc(Nc2ccccc2)cc1)N1CCOCC1 | i
CC(C)c1ccc(NC(=S)N2CCOCC2)cc1 | 0%
Nc1c(NCCc2ccccc2)c2ccccc2oc1=O | i
Cc1cc(C(=O)Nc2nnc(C3CCCCC3)s2)ccc1[N+](=O)[O-] | i
Cc1cc(C(C#N)c2ccc(Cl)cc2)c(Cl)cc1NC(=O)c1ccc([N+](=O)[O-])cc1 (stereo unspecified) | i
COC(=O)c1sc(NC(=O)c2cccc(C(=O)Nc3nc(C)c(C(=O)OC)s3)c2)nc1C | i
Cc1cccc(NC(=O)c2cccc3c2-c2ccccc2C3=O)n1 | 7%
CCOc1ccc(C2C(C(=O)c3ccc(C)o3)=C(O)C(=O)N2CCN2CCOCC2)cc1 (stereo unspecified) | i
CCOC(=O)c1ccc(NC(=S)N2CCN(c3cc(Cl)ccc3C)CC2)cc1 | i
CC(=O)c1ccc(NC(=S)Nc2nn(Cc3c(F)cccc3Cl)cc2Br)cc1 | i
CCn1c(SCC(=O)Nc2ccc(Oc3ccccc3)cc2)nnc1-c1ccccc1 | i
CC(=O)c1ccc(NC(=S)NCCSc2ccc(Cl)cc2)cc1 | i
Cn1c(SCC(N)=O)nc2ccccc2c1=O | i
Cc1cccc(C)c1N1CCN(C(=O)N2CCCCCC2)CC1 | i
COc1ccc(CNS(=O)(=O)c2ccc(Cl)c(Cl)c2OC)cc1 | i
CN(C(=O)Oc1ccc(C(=O)c2ccccc2)cc1)c1ccccc1 | i
CC(C)(C)c1ccc(C(=O)Nc2ccccc2C(=O)NCc2cccnc2)cc1 | u
O=C(CN1CC(=O)Oc2ccccc21)OCC(=O)c1ccc(Cl)c(Cl)c1 | i
CC(=O)Nc1cc(Cl)ccc1OS(=O)(=O)c1ccc(Cl)cc1 | 1%

Random excerpt: 7 compounds from above.
SMILES | Mtb H37Rv
CCn1c(SCC(=O)Nc2ccc(Oc3ccccc3)cc2)nnc1-c1ccccc1 | i
Cn1c(SCC(N)=O)nc2ccccc2c1=O | i
COc1ccc(CNS(=O)(=O)c2ccc(Cl)c(Cl)c2OC)cc1 | i
O=C(CN1CC(=O)Oc2ccccc21)OCC(=O)c1ccc(Cl)c(Cl)c1 | i
CC(=O)c1ccc(NC(=S)NCCSc2ccc(Cl)cc2)cc1 | i
Cc1cccc(C)c1N1CCN(C(=O)N2CCCCCC2)CC1 | i
CN(C(=O)Oc1ccc(C(=O)c2ccccc2)cc1)c1ccccc1 | i

(more compounds)
SMILES | Mtb H37Rv
Cc1ccc(C(=O)O)cc1NC(=S)NC(=O)c1cccc(Cl)c1Cl | i
Cc1ccc(C(=O)NCc2ccc(Cl)cc2)o1 | i
CCNS(=O)(=O)c1ccc(OC)c(Br)c1 | i
COc1ccc(NC(=S)Nc2ccccc2OC(F)F)cc1OC | i
Cc1cc(Br)c(NC(=O)CSc2nnc(-c3ccc(Cl)cc3)n2C)cc1C | i
CCOC(=O)c1ccc(NS(=O)(=O)c2ccc(OC)c(Cl)c2)cc1 | i
CCOC(=O)c1c2c(n(C)c1CN(CC)CC)C(=O)C(=O)c1ccc(Br)cc1-2 | 0.17µg/mL*
O=[N+]([O-])c1ccc(-c2cn(C(F)F)c(SC(F)F)n2)cc1 | 6%
Cc1nc2ccc(NC(=O)N3CCCCC3)cc2s1 | i
CCn1c(Cc2ccc(OC)cc2)n[nH]c1=S | 6%

An excerpt of these results, field by field:
Cc1cc(Br)c(NC(=O)CSc2nnc(-c3ccc(Cl)cc3)n2C)cc1C
  Mtb H37Rv: i

CCOC(=O)c1ccc(NS(=O)(=O)c2ccc(OC)c(Cl)c2)cc1
  Mtb H37Rv: i

CCOC(=O)c1c2c(n(C)c1CN(CC)CC)C(=O)C(=O)c1ccc(Br)cc1-2
  Mtb H37Rv: 0.17µg/mL*

O=[N+]([O-])c1ccc(-c2cn(C(F)F)c(SC(F)F)n2)cc1
  Mtb H37Rv: 6%

Following part:
SMILES | Mtb H37Rv
CCSc1nnc(NC(=O)C(Sc2ccccc2)c2ccccc2)s1 (stereo unspecified) | i
Cc1cc(OCC(=O)NCCN2CCOCC2)cc(C)c1Cl | i
CCOc1ccccc1NC(=O)c1ccccc1NC(=O)c1ccco1 | i
O=C(CN(C1CCCCC1)S(=O)(=O)c1ccc(Cl)cc1)NC1CC1 | i
Cc1ccccc1NS(=O)(=O)c1ccc(-n2cnnn2)cc1 | i
Cc1ccc(NC(=O)c2cc(NC(=O)C3CC=CCC3C(=O)O)ccc2N2CCOCC2)cc1Cl (stereo unspecified) | i
COc1ccc(NC(=S)N2CCC(Cc3ccccc3)CC2)c(OC)c1 | 11%
O=C(c1cnc(-c2ccccc2)nc1)N1CCCCC1 | i
COC(=O)c1sc(NC(=O)c2ccc(C)c(C)c2)c(C(N)=O)c1C | i
CCC(C)NCCOc1c(Cl)cc(C)cc1Br (stereo unspecified) | i
CCOC(=O)Nc1sc(C)c(C)c1C(=O)OC | i
CCC(C)c1ccccc1OCCCNCCO (stereo unspecified) | 4%
C=CCc1cc(OC)ccc1OCCOCCN1CCOCC1 | i
Cc1ccc(NC(=O)c2ccc3ccccc3n2)nc1 | u
CC(C)NCCCOc1ccc(C(C)(C)c2ccccc2)cc1 | 6%
CC1CCc2c(sc(NC(=O)c3ncn[nH]3)c2C#N)C1 (stereo unspecified) | i
CN(c1cccc(NS(=O)(=O)c2ccc(Br)cc2)c1)S(C)(=O)=O | i
COc1ccc(C(=O)c2oc3ccccc3c2N)cc1 | 10%
O=C(Nc1ccccc1C(=O)N1CCOCC1)c1ccccc1 | i
Cc1cc(C)c(C)c(OCC(=O)NC2CC(C)(C)NC(C)(C)C2)c1 | i
Oc1ccc(CCNC(=S)Nc2ccc(F)cc2)cc1 | i
CN1CCN(C(=S)Nc2ccc(Nc3ccccc3)cc2)CC1 | i
CC1=C(C(=O)Nc2ccccc2F)C(c2ccc([N+](=O)[O-])cc2)NC(=S)N1 (stereo unspecified) | i
CC(C)(C)NC(=O)CSc1nc2ccc(NC(=O)CSc3nc4ccccc4[nH]3)cc2s1 | i
O=C(CSc1nc(-c2ccccc2)cc(=O)[nH]1)Nc1cc(Cl)cc(Cl)c1 | 8%
CCOC(=O)C(Oc1ccc2c(-c3ccccc3)cc(=O)oc2c1C)c1ccccc1 (stereo unspecified) | u
COc1ccc(S(=O)(=O)Nc2ccc(C)c(C)c2)cc1C | i
O=C(Nc1ccc(F)c(F)c1)c1ccc(I)cc1 | i
Cc1occc1C(=O)N1CC(C)N(C(=O)c2ccoc2C)CC1C (stereo unspecified) | i
Cc1ccc(C(=O)NCCN2CCOCC2)cc1S(=O)(=O)N1CCCCC1 | i
CSc1ccc(S(=O)(=O)N(CC(=O)Nc2ccc(S(=O)(=O)N3CCOCC3)cc2)c2ccc(C)cc2)cc1 | i
Cc1cc(OCC(=O)N(C)C)cc(C)c1Br | i
CCCOc1ccc(NC(=O)CC2C(=O)N(CC)C(=S)N2Cc2cccs2)cc1 (stereo unspecified) | 9%
COc1cc(C2NC(=S)NC(C)=C2C(=O)Nc2ccccn2)ccc1OCc1ccccc1 (stereo unspecified) | i
CCOC(=O)c1nc(Nc2cc(Cl)ccc2O)c2ccccc2n1 | i
O=S(=O)(c1ccccc1F)N1CCN(c2ccc(Cl)c(Cl)c2)CC1 | i
COc1ccccc1CNC(=O)C(=O)Nc1ccccc1OC | 4%
O=C(Nc1ccccc1Cl)N1CCN(C(c2ccccc2)c2ccccc2)CC1 | i
CCc1c(C)sc(NC(=S)Nc2ncn(Cc3ccc(Cl)c(Cl)c3)n2)c1C(=O)OC | 38%
CCN(CC)CCNc1nc(-c2cccc(Cl)c2)nc2ccccc12 | 46µg/mL*
CCn1ccnc1C(O)(c1ccccc1)c1ccccc1 | 4%
Cn1c2ccccc2n2nc(CCC(=O)O)c(=O)nc12 | i
NS(=O)(=O)c1ccc(NC(=S)Nc2ccc(Cl)cc2F)cc1 | i
CCN(CC)S(=O)(=O)c1ccc(OC)c(NS(=O)(=O)c2ccc(Br)cc2)c1 | i
CCCCN1C(=O)C(O)(CC(=O)c2ccccc2OC)c2ccccc21 (stereo unspecified) | i
Cc1cc(Cl)ccc1OC(C)C(=O)N1CCCCCC1 (stereo unspecified) | i
Cc1ccc(/C=C/C(=O)Nc2cccc(Cl)c2Cl)o1 | i
CCOC(=O)N1CCN(C(=O)CN(c2ccc(C)c(C)c2)S(C)(=O)=O)CC1 | i
CCOc1ccc(OCc2ccc(C(=O)N3CCCCC3)o2)cc1 | 3%
Cc1cc(C)c(NC(=O)c2ccc(CSc3ccc(Cl)cc3)cc2)c(C)c1 | u

The results go on.
SMILES | Mtb H37Rv
COc1ccccc1N1CCN(C(=O)c2ccc(N(C)S(C)(=O)=O)cc2)CC1 | i
CCOCCOCCN1C(=O)c2ccccc2C1=O | i
O=C(CCSc1ccccc1)NCCCn1ccnc1 | i
CC(=O)Nc1ncc(Cc2cc(Cl)ccc2Cl)s1 | 37%
COc1ccc(NC(=O)Nc2ccccc2Oc2ccccc2)cc1 | i
CCOC(=O)c1c(NC(=O)C2CC2)sc(C(=O)N(C)C)c1C | i
O=C(CSc1nnc(-c2ccc(Cl)cc2)n1-c1ccccc1)N1CCCC1 | i
O=C(NCc1ccccc1)C(=O)Nc1ccccc1F | 4%
CN(c1cccc(NC(=O)c2ccc(CN3CCc4ccccc4C3)cc2)c1)S(C)(=O)=O | i
O=C(O)C1C2C=CC(O2)C1C(=O)NCc1ccc(Cl)cc1 (stereo unspecified) | i
CN(C)S(=O)(=O)N1CCN(c2ccccc2F)CC1 | i
Cc1ccc(CN(CC(=O)Nc2ccc(F)cc2F)S(=O)(=O)c2ccccc2)cc1 | i
CC(=O)c1cccc(NC(=O)CSc2nnc3c(C)cc4ccccc4n23)c1 | i
COc1ccc(N(CC(=O)Nc2ccc(C)c(Cl)c2)S(=O)(=O)c2ccc(C)cc2)cc1 | i
CSc1ccccc1NC(=S)Nc1cccc(Cl)c1Cl | 0%
Cc1ccc(CN(c2ccc(C(=O)NC3CC3)cc2)S(C)(=O)=O)cc1 | i
COc1ccc(N(CC(=O)NCCSCc2ccccc2)S(=O)(=O)c2ccc(F)cc2)cc1 | i
COc1ccccc1C(=O)Nc1ccc(C(F)(F)F)cc1 | 4%
O=C(c1ccc(Cl)cc1)N1CCN(c2ccc([N+](=O)[O-])c(NCC3CCCO3)c2)CC1 (stereo unspecified) | 1%
CCOC(=O)N1CCN(S(=O)(=O)c2ccc(OC)c(C)c2)CC1 | i
CCCCn1c(COc2ccc(C)cc2)nc2ccccc21 | 50%
COCCN1C(=O)C(O)=C(C(=O)c2ccc(C)o2)C1c1ccc(C(C)C)cc1 (stereo unspecified) | i
Cc1cccc(NC(=O)CN(Cc2ccccc2)S(=O)(=O)c2cc(Cl)ccc2Cl)c1C | i
Cc1cc(Br)cc(C)c1NC(=O)CSc1nc2ccccc2s1 | i
CC(=O)N(C)c1ccc(OCC(O)CN(c2ccccc2C)S(=O)(=O)c2ccc(C)cc2)cc1 (stereo unspecified) | i
CN1CCC(N(C)C(=S)NCCc2ccccc2)CC1 | i
Cc1cccc(NC(=S)NC2CC(C)(C)NC(C)(C)C2)c1C | i
O=C1Nc2ccccc2C1C1(O)C(=O)Nc2ccc(F)cc21 (stereo unspecified) | i
Cn1c(SCC(=O)c2ccccc2)nnc1-c1ccccc1 | i
CSc1nc2sc3c(c2c(=O)n1-c1ccccc1)CCC3 | i
COCCNC(=O)c1cnn2c1NC(c1ccc(OC)cc1)CC2C(F)(F)F (stereo unspecified) | i
C(#Cc1cccc(C#CCN2CCCCC2)c1)CN1CCCCC1 | i
N#Cc1cc(C#N)c(SCCN2CCOCC2)nc1N | i
COc1ccc(/C=C/c2nn3c(-c4ccccc4)nnc3s2)cc1 | 2%
O=[N+]([O-])c1ccc(NC(=S)NCCc2ccccn2)cc1 | 0%
CCCNC(=O)c1ccccc1NC(=O)CN(c1ccccc1OCC)S(C)(=O)=O | i
CC(C)c1ccc(NCCC(=O)c2ccc(Br)cc2)cc1 | 21%
Cc1cc(OCC(=O)Nc2cccnc2)cc(C)c1Br | i

Bioassay records (PubChem BioAssay)

This is a subset; the hit share may differ from the screen's.
